# Source: PubChem BioAssay
# AID504770: growth inhibitors of E. coli YBA685 in a screen for V. cholerae RctB (chromosome II replication) inhibitors; AID 504770; z-score (concentration not given with the values); 0.27% of 130,000 active; E. coli YBA685 rctB-dependent plasmid, OD600 growth, 3 h; stronger effect = lower value;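 active = z-score under -2 on both plates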;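 also: wells of about 30 µL received 100 nL stock; score is relative to mean and SD of the test wells; the first replicate is given; strong numbers were not always called active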
# CapD inh: CapD enzyme inhibition; purified CapD enzyme, fluorescence intensity read-out; stronger effect = lower value; some hits fall short of the stated cut; z-score (no concentration beside the values); 0.23% of 140,000 active; AID 492967;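 active = z-score under -4 in either of two replicates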;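 also: stock transfer was 100 nL into about 40 µL; score is relative to mean and spread of the plate; one replicate is shown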
# Numbers without * were called inactive; nt = no result given.
# Start of the data: the first 7 entries (preview)
# Results follow in this order: AID504770	CapD inh
COc1ccc2oc(=O)c(-c3cc4c(c(C)n3)c(=O)oc3ccc(OC)cc34)cc2c1
  -0.7	nt
O=C1NCCCC1C(=O)N1CCN(C(c2ccccc2)c2ccccc2)CC1 (centres undefined)
  -0.45	-0.27
Cc1nn(C)cc1S(=O)(=O)N1CCc2ccccc2C1
  1.6	-1
CCOc1ccccc1C=C(C#N)C#N
  0.1	4.7
COc1nc(NCCCC(C)C)nc(N2CCC(Cc3ccccc3)CC2)n1
  -0.4	3.7
CC(Cn1cnc2ccccc21)C(=O)N=Nc1c(O)[nH]c2ccccc12 (centres undefined)
  0.85	nt
COc1ccc(C2Nc3cccc4cccc(c34)N2)cc1
  nt	29

# Main list, repeating the preview:
# Results follow in this order: AID504770	CapD inh
COc1ccc2oc(=O)c(-c3cc4c(c(C)n3)c(=O)oc3ccc(OC)cc34)cc2c1
  -0.7	nt
O=C1NCCCC1C(=O)N1CCN(C(c2ccccc2)c2ccccc2)CC1 (centres undefined)
  -0.45	-0.27
Cc1nn(C)cc1S(=O)(=O)N1CCc2ccccc2C1
  1.6	-1
CCOc1ccccc1C=C(C#N)C#N
  0.1	4.7
COc1nc(NCCCC(C)C)nc(N2CCC(Cc3ccccc3)CC2)n1
  -0.4	3.7
CC(Cn1cnc2ccccc21)C(=O)N=Nc1c(O)[nH]c2ccccc12 (centres undefined)
  0.85	nt
COc1ccc(C2Nc3cccc4cccc(c34)N2)cc1
  nt	29
C=CCn1c(CCNC(=O)c2ccc(OC)c(OC)c2)nc2ccccc21
  -0.3	-0.42
CCOc1ccccc1C(=O)OCC(=O)N1CCN(c2ccccc2)CC1
  -0.7	nt
O=C(O)c1cccnc1NC1CCCC1
  -0.45	nt
CCC(C(=O)Nc1ccc(OC)cc1)n1sc2ccccc2c1=O (centres undefined)
  -1.1	-1.1
COc1ccc(C2=NN(C(=O)CSc3nnc(CNC(=O)c4ccco4)n3C)C(c3ccc(F)cc3)C2)cc1 (centres undefined)
  nt	-0.6
O=C(CSC1=NS(=O)(=O)c2ccccc2N1)N1CCCC1
  0.35	0.22
CSc1nc2ccc(S(=O)(=O)N3CCc4ccccc43)cc2s1
  0.85	-0.17
CCN1C(=O)S/C(=C\c2ccc3c(c2)OCO3)C1=O
  0.05	0.14
CN(C)c1nn(C(=O)NC(C)(C)C)cc1-c1ccccc1
  -1.2	0.055
Cc1ccccc1Nc1sc(C(=O)c2ccccc2)c(N)c1C(N)=O
  -0.6	-1.8
CCN(C(=O)c1cccc(S(=O)(=O)N2CCCC2)c1)c1nc2c(C)cccc2s1
  0.3	nt
CC(=O)Nc1ccc(NC(=O)CSc2nnc(C)s2)cc1
  nt	1
Cn1nnc2cc(C(=O)N3CCCCCC3)ccc21
  -1.5	nt

# Single values from the list:
# For CapD inh, CCN1C(=O)S/C(=C\c2ccc3c(c2)OCO3)C1=O is entered as 0.14
# For AID504770, CCN(C(=O)c1cccc(S(=O)(=O)N2CCCC2)c1)c1nc2c(C)cccc2s1 is entered as 0.3
# For CapD inh, COc1nc(NCCCC(C)C)nc(N2CCC(Cc3ccccc3)CC2)n1 is entered as 3.7

# Other records follow:
# Results follow in this order: AID504770	CapD inh
CN(C(=O)COCc1cc(-c2ccco2)on1)c1ccccc1
  0.25	-0.01
Cc1cc(C(=O)COn2nnc3ccc(Cl)cc32)c(C)n1-c1ccc2c(c1)OCCO2
  0.1	nt
O=C1N(CN2CCN(Cc3ccccc3)CC2)c2ccccc2C12OCCCO2
  -0.35	0.34
CCOC(=O)c1cc(=O)c2ccc(OC(=O)c3cccs3)cc2o1
  0.7	0.65
CN(C(=O)c1ccccc1CC(=O)O)C1CCN(Cc2ccccc2OCc2ccccc2)C1 (centres undefined)
  nt	3.6
COc1ccccc1C(=O)N1CCCC1COC(=O)N1CCN(c2cc(C(F)(F)F)ccn2)CC1 (centres undefined)
  nt	73
CCCCNC1CCS(=O)(=O)C1 (centres undefined)
  -0.55	nt
c1ccc(N2CCN(CCNc3ncnc4nc[nH]c34)CC2)cc1
  -0.8	-0.58
Cc1ccc(CNc2ncc(-c3ccc(C)cc3)n2C)cc1
  -0.7	14
CSC(=O)NC(=O)c1cccc(=O)o1
  0.4	-0.74
CCOC(=O)c1c(C)n(-c2ccccc2)c2ccc(OC(=O)c3cccc(F)c3)cc12
  nt	-0.42
Cc1c(O)ccc(C(=O)COc2ccccc2)c1O
  0.7	nt
O=C(CSc1nnc2sc3ccccc3n12)c1cccc2ccccc12
  nt	-0.97
CNC(=O)c1cc2c(=O)n3cc(C)ccc3nc2n(C(C)C)c1=N
  -0.55	30
O=C(NCC12CC3CC(CC(C3)C1)C2)C1CCCCC1C(=O)OCC(F)(F)F (centres undefined)
  -0.1	-0.23
CCOC(=O)CN1C(=O)C(CC)Oc2ccc(Cl)cc21 (centres undefined)
  -0.5	0.65
CCOC(=O)c1c(CSc2ccccc2)oc2ccc(O)c(CN(C)C)c12
  -0.9	0.065
Nc1ncnc2nc(N3CCCCC3)[nH]c12
  -0.9	0.05
Cn1c(=O)c2ccccc2n2c(COC(=O)C3(Cc4nc5ccccc5s4)CCCCC3)nnc12
  0.15	nt
Nc1ccccc1-c1nnn(CC(=O)Nc2ccccc2)n1
  -0.15	0.54
Cc1ccc(-c2nc3cc(Cl)cc(Cl)c3o2)cc1NC(=O)c1ccc2c(c1)OCCO2
  nt	0.5
O=C(Nc1ccc([N+](=O)[O-])cn1)c1ccc(Sc2ccc(Cl)cc2)c([N+](=O)[O-])c1
  nt	-0.25
Cc1c(C(=O)O)sc2ncn(CC(=O)Nc3ccc(C(C)C)cc3)c(=O)c12
  nt	-0.075
CSc1ncc2c(c1C#N)CCCC2
  -0.1	5.5
CC(C)(C)C(=O)CSC1=NCCS1
  -0.8	0.1
O=C(N/N=C/c1ccc(/C=C/c2ccccc2)cc1)c1cc2ccccc2cc1O
  nt	3.3
O=C(NC1CCC(C(F)(F)F)OC1=O)c1ccccc1 (centres undefined)
  0.05	nt
CCCc1cc(=O)[nH]c(SC)n1
  -1.7	0.36
COc1ccc(Nc2cc(C)c3cc(NC(=O)c4ccc(OC)cc4)ccc3n2)cc1
  -0.45	34
CO/N=C(/CS(=O)Cc1ccc(Cl)cc1)c1ccc(Cl)cc1 (centres undefined)
  nt	0.1
CN(C)CCCN1C(=O)C2CCc3[nH]c4ccccc4c3C2C1=O (centres undefined)
  0.1	nt
O=c1cc(CN2CCC(Cc3ccccc3)CC2)c2ccc(O)cc2o1
  -0.05	nt
O=C(Nc1ccc(S(=O)(=O)Nc2ncccn2)cc1)c1ccc2c(c1)C(=O)N(Cc1ccncc1)C2=O
  -0.3	nt
Cn1nccc1NC(=O)c1ccccc1
  -0.5	0.16
CCc1ccc(NC(=O)C(C)OC(=O)c2ccc3c(c2)OCO3)cc1 (centres undefined)
  0.95	nt
O=c1cc[nH]c2cc(N3CCOCC3)c(F)cc12
  -1	60
CNC(=O)C1CCC(=O)N1Cc1ccc(C)cc1 (centres undefined)
  -0.6	-0.67
N#CCC(=O)NC(=O)Nc1ccc(F)cc1F
  -1.1	1.3
FC(F)(F)c1ccnc(SCn2c(=S)sc3ccccc32)n1
  -1.7	-0.41
CC(=C\c1ccc(Cl)cc1)/C(C)=N/O
  nt	-0.075

# Other records.
SMILES,AID504770,CapD inh
CN(C)c1cc(-c2nnc(SCC(=O)c3ccc(Cl)cc3)n2C)nc(N(C)C)n1,nt,-0.1
CCOC(=O)C1CCCN(C(=O)c2sc3ncnc(N4CCN(c5ccc(OC)cc5)CC4)c3c2C)C1 (centres undefined),nt,-0.03
CC(/C=C/c1ccc[n+](C)c1)=C\C(=O)O,-0.75,17
CCN(CC)C(=O)C1CCCN1 (centres undefined),1.2,nt
Cc1ccc(-c2nn(-c3cccc(F)c3)c3c2cnc2cc(F)c(F)cc23)cc1,-0.75,10
O=C(CN1CCC(NC(=O)c2ccccc2)CC1)Nc1ccccc1,0.3,-0.085
CC(NC(=O)COc1ccc(Cl)cc1)C(=O)O (centres undefined),-0.5,0.03
CCNc1nc(NC(C)CC)nc(ON=C(C)C)n1 (centres undefined),-0.15,nt
COc1ccc2nc(SCC(=O)O)[nH]c2c1,1.5,-0.54
O=C(Nc1ccccc1C(=O)NN1S(=O)(=O)c2ccccc2S1(=O)=O)c1ccccc1Cl,nt,0.09
O=C(Cn1cc(/C=C2\NC(=O)NC2=O)c2ccccc21)Nc1ccccc1,0.65,0.88
CCCSCC(=O)Nc1ccc(C)cc1C,-0.75,0.38
C=C1C2(C(=O)Nc3ccc(C(=O)OC)cc3)CCC(C2)C1(C)C (centres undefined),-0.85,0.03
COc1ccc(SCC(=O)O)cc1OC,nt,0.48
COc1ccc(C2CCCCCN2C(=O)Cn2c(C)csc2=O)cc1 (centres undefined),-0.35,nt
Cc1ccc(C2C3=C(CC(C)(C)CC3=O)Nc3n[nH]c(C)c32)cc1 (centres undefined),-0.5,80

# Part of the list above in order of number of heavy atoms, lowest first.
SMILES,AID504770,CapD inh
COc1ccc2nc(SCC(=O)O)[nH]c2c1,1.5,-0.54
C=C1C2(C(=O)Nc3ccc(C(=O)OC)cc3)CCC(C2)C1(C)C (centres undefined),-0.85,0.03
O=C(Nc1ccccc1C(=O)NN1S(=O)(=O)c2ccccc2S1(=O)=O)c1ccccc1Cl,nt,0.09

# Continuation.
SMILES,AID504770,CapD inh
COC(=O)c1c(NC(=O)C2SC(=NC3CCCCC3)C(C(N)=O)=C2N)sc2c1CCCC2 (centres undefined),-0.25,nt
Cc1[nH]ncc1CNC(=O)c1[nH]nc2c1CCc1ccccc1-2,-0.8,1.1
FC(F)(F)c1cnc(Sc2nc3nccc(-c4ccco4)n3n2)c(Cl)c1,nt,71
O=C(Cn1cc(C(F)(F)F)ccc1=O)c1ccc[nH]1,1.1,nt
Cc1cc(C)c(C(N)=O)c(SCC(=O)Nc2nccs2)n1,-0.25,-0.31
CCOc1cc(/C=C2/SC(N)=NC2=O)ccc1OCc1ccc([N+](=O)[O-])cc1,nt,0.2
CC(=O)Nc1ccc(S(=O)(=O)NCCSCc2ccco2)cc1,nt,0.81
CC1CN/C(=C/C(=O)/C=C/c2ccccc2)C(=O)N1 (centres undefined),-1.2,-0.03
CCOC(=O)c1cnc2ccc(C)cc2c1Sc1ccccc1C(=O)OC,nt,0.2
CCNS(=O)(=O)c1ccc2c3c(cccc13)C(=O)N2,-0.05,nt
O=C(c1ccccc1O)N1N=C(C(F)(F)F)CC1(O)c1ccncc1 (centres undefined),nt,-0.15
Cc1ccc(NC(=O)Nc2ccc3c(c2)C(=O)NC3=O)cc1,-0.5,nt
O=C(NCCc1cn2ccccc2n1)c1cccc(C(F)(F)F)c1,-0.85,-0.22
COCCOC(=O)c1c(C)oc2ccc(OCc3ccccc3Br)cc12,nt,0.04
CCCCOC(=O)COc1ccc2c3c(c(=O)oc2c1)CCCC3,nt,32
CCOC(=O)N1CCN(C(=O)c2c[nH]c3ccc(S(=O)(=O)N(C)c4ccc(F)cc4)cc3c2=O)CC1,nt,4.3
CCCCNC(=O)Nc1nnc(Cc2ccccc2)s1,-0.25,nt
COC(=O)c1ccc(S(=O)(=O)NCCc2ccccc2OC)n1C,1.2,1.1
C=CCn1c(C)nnc1SC(C)C(=O)Nc1ccc(S(=O)(=O)NC(C)C)cc1 (centres undefined),0.45,nt
Cc1cc(NC(=O)CN(C)C2CCCCC2)nc2c1c(=O)oc1ccccc12,-0.2,1.1
O=c1cc(O)c2c(=O)n(-c3ccccc3)c3ccccc3c2o1,0.05,0.16
Cc1onc(-c2ccccc2Cl)c1C(=O)Nc1c2c(nn1-c1ccc([N+](=O)[O-])cc1)CSC2,nt,-1.1
Cc1nc(C(=O)O)nn1-c1ccc(Cl)cc1,0.25,nt
COc1ccc(N2C(=O)CSC2c2cccc(Br)c2)c(OC)c1 (centres undefined),nt,0.56
O=C(CC1(O)C(=O)Nc2ccccc21)c1cc2ccccc2oc1=O (centres undefined),nt,-0.3
CC(=O)Oc1cc2c(C(=O)NCc3ccccn3)c(C)oc2c2ccccc12,0,nt
CCOC(=O)N1CCN(c2ncnc3c2c(-c2ccccc2)cn3-c2cccc(C)c2)CC1,nt,0.26
CCOC(=O)C1=C(C(=O)OCC)SC(=C2C(=S)C(C)(C)N(C(=O)c3cccc(OC)c3)c3ccc(OC)cc32)S1,nt,-0.64
CC(C)c1cc(NC(=O)COC(=O)c2ccc3[nH]c4c(c3c2)CCCC4)on1,1.6,nt
Cc1ccc(C#N)c(SCC(=O)c2ccc(C(=O)CSc3nc(C)ccc3C#N)cc2)n1,nt,0.05
O=C(O)c1ccc(N2Cc3ccc(Br)cc3C2)cc1,-0.5,0.12
Cn1c(=O)c(=O)[nH]c2cnccc21,-0.15,nt
CC(Sc1ncnc2c1oc1ccccc12)c1ccccc1 (centres undefined),0.65,nt
COc1ccc(CN(C)C(=O)c2cccc(S(=O)(=O)N(C)C)c2)c(OC)c1,0,nt
COc1ccc(OC)c(C2C(N3C(=O)c4c(Cl)c(Cl)c(Cl)c(Cl)c4C3=O)C(=O)N2c2cccc(Cl)c2C)c1 (centres undefined),nt,-0.29
Cc1cccc2c1[nH]c1nc(SCC(C)C)nnc12,nt,-0.23
CC(C(N)=O)n1cncn1 (centres undefined),2.4,-0.6
O=C(O)C1CCN1C1CCCCC1 (centres undefined),-0.75,nt
CS(=O)(=O)N1CCC(C(=O)NC2CCCCC2)CC1,-0.8,nt
COc1ccc(NC(=O)C2C3C=CC(O3)C2C(=O)NCc2cccnc2)cc1 (centres undefined),-0.45,nt
CCC1(c2cccc(O)c2)CCCCN(C)C1 (centres undefined),nt,-0.14
COC(=O)c1nn(-c2ccc3c(c2)CCN3C(C)=O)cc1O,0.35,nt
CCOc1cc(C(=O)Nc2ccc3nc(N4CCN(CC)CC4)cc(C)c3c2)cc(OCC)c1OCC,-0.65,4.1
O=C(O)CC1(CC2=NS(=O)(=O)c3ccccc3N2)CCCC1,-1.4,0.18
CC1=C(C)CS(=O)N(S(=O)(=O)c2ccccc2)C1 (centres undefined),-1.2,-0.22
N#CCn1c(CN2CCCCC2C(N)=O)nc2scc(-c3ccccc3)c2c1=O (centres undefined),1.3,nt
Cc1c(NC(=O)C(C)n2nc(C(=O)O)c3ccccc3c2=O)c(=O)n(-c2ccccc2)n1C (centres undefined),0.2,nt
